Sa helicase inh = inhibitors of S. aureus replicative helicase, primary screen, biochemical, fluorescence unwinding readout. replicative DNA helicase (DnaC/DnaB), Staphylococcus aureus. purified S. aureus helicase, fluorescence unwinding assay; about half of the hits fall short of the stated cut. inhibition, %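 (tested at about 80 µM)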. 120,000 tested, 0.05% active. AID 485395, 2010;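 active = both duplicates at 50% or more, or one of them with a favoured structure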;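 note: 0% = mean of negative control wells and 100% = mean of positive control wells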
MgrA-DNA mod = S. aureus MgrA activity modulators, primary screen, biochemical, S. aureus Newman, fluorescence polarization; 84,000 tested, 0.13% active; inhibition, %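 (about 10 µg/mL by stock and volumes)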; MgrA-DNA binding; AID 602314, 2012;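 active = above 50% in either of two replicates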;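 note: 0% = protein plus DNA without compound and 100% = DNA alone without protein; higher means less MgrA bound to DNA so lower polarization; one replicate is shown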
The depositor's hits bear a star; i = inactive; nt = not tested or not shown; & = joins results of further samples. These rows are one share of the data; rates above refer to the full screens.

SMILES	Sa helicase inh	MgrA-DNA mod
CCOc1ccc2cc(-c3nc4ccccc4s3)c(=O)oc2c1	nt	0.4
CSc1nc2ccccc2c(=O)[nH]1	nt	1.6
O=C(CSc1nnc(-c2ccccc2F)n1Cc1ccccc1)N1CCNC1=O	16.0	nt
CCCCS(=O)(=O)c1sc2nc3c(cc2c1N)CCCC3	-6.0	2.3
CCCCOc1ccc(/C=N/n2cnnc2)cc1	5.0	nt
CCC(CC)C(=O)NCCc1cc2ccc(C)cc2[nH]c1=O	13.0	nt
CCOC(=O)c1c(C)[nH]c(C(=O)CSc2nccc(C)n2)c1C	1.0	nt
Cc1ccc2nc(-c3ccc(NC(=O)c4cccc5c(Br)cccc45)cc3)sc2c1	nt	0.0
CC(CC(N)=O)c1ccccc1 (stereo not given)	10.0	-1.1
COc1ccc(OCC(=O)N=Nc2c(O)n(C)c3ccccc23)cc1	12.0	6.2
O=C(O)C1CC=CCC1C(=O)NNc1ncnc2ccccc12 (stereo not given)	6.0	nt
COC(=O)Nc1ccccc1C(=O)N1CCCCC1	2.0	nt
NC(=O)c1ccc(C(F)(F)F)cc1	10.0	0.6
Cc1ccc(NC2CC(C)N(C(=O)c3ccccc3C)c3c(C)cccc32)cc1 (stereo not given)	nt	-3.3
NC(=O)C1CCN(C(c2ccc(F)cc2)c2nnc(-c3ccccc3)o2)CC1 (stereo not given)	6.0	nt
Clc1ccc(C=Nc2ccc(-c3cnco3)cc2)cc1	nt	-1.1
CCOc1ccc(NC(=O)C(NS(=O)(=O)c2cccs2)c2ccccc2)cc1 (stereo not given)	14.0	nt
O=[N+]([O-])C1=Cc2ccccc2OC1c1cccs1 (stereo not given)	nt	0.0
CS(=O)(=O)c1ccc(NC(=O)COc2ccc(C#N)cc2)cc1	6.0	nt
COc1cc(NC(=O)C2CC(=O)N(c3cccc(C)c3C)C2)c(OC)cc1Cl (stereo not given)	-4.0	1.8
CCOCCOC(=O)c1ccc(NC(=O)C2COc3ccccc3O2)cc1 (stereo not given)	nt	-0.1
CCOC(=O)C1CCN(C(=O)C2c3ccccc3C(=O)N3CCc4ccccc4C23)CC1 (stereo not given)	6.0	4.2
O=C1c2ccccc2-c2c(NCCc3ccccc3)c(=O)[nH]c3cccc1c23	i	17.6
O=C(Nc1ccccc1)OCC12COC(c3ccccc3)N1C(c1ccccc1)OC2 (stereo not given)	-3.0	-1.5
CC(=O)Nc1ccc(S(=O)(=O)N(c2ccc(C(F)(F)F)cc2)S(=O)(=O)c2ccc(NC(C)=O)cc2)cc1	nt	1.7
O=C(Nc1ncn[nH]1)c1ccccc1O	-13.0	-1.9
CS(=O)(=O)c1sc(C(=O)Nc2ccc(Cl)cc2)c2c1C=CCC2	nt	-0.3
CN1CCCC(OC(=O)C2CCCCC2)C1 (stereo not given)	1.0	-0.4
COc1nnc(-c2ccc(N3CCCCC3)c(NC(C)=O)c2)c2ccccc12	-8.0	3.2
Nc1nonc1-n1nnc(C(=O)N/N=C/c2ccncc2)c1-c1ccccc1	-5.0	nt
CC12CCC(=O)N1C(C(=O)Nc1cccc3ccccc13)CS2 (stereo not given)	-10.0	nt
O=C(NCCNc1ccc2ccccc2c1)c1ccc2nc3ccc(Cl)cc3c(=O)n2c1	4.0	-0.5
CCOC(=O)Cn1c(=O)oc2cc(S(=O)(=O)Nc3cccc(CC)c3)ccc21	-7.0	2.2
COc1ccc(C2CC(C3(C)CCCCC3)=NO2)cc1 (stereo not given)	5.0	-8.2
Cn1cc(CN(Cc2ccccc2)C(=O)Nc2ccccc2)c2ccccc21	4.0	0.0
O=C(O)CC(CC(=O)N1CCN(C(=O)c2ccco2)CC1)c1ccccc1 (stereo not given)	nt	-4.8
N#CC1=C(N)Oc2cc(O)ccc2C1c1ccccc1 (stereo not given)	-1.0	2.9
CC(=O)N1CCCc2ccc(NC(=O)C(C)C)cc21	0.0	nt
CCN(CC)S(=O)(=O)c1ccc(N(C)Cc2ccccc2OC)nc1	-9.0	nt
CCc1ccc(C2NC(=O)NC3=C2C(=O)CC(C)(C)C3)cc1 (stereo not given)	14.0	-0.3
CCOc1cccc(C2C(C(=O)OC)=CN(CC)C=C2C(=O)OC)c1	3.0	5.1
O=C1NC(c2ccccc2)(c2ccccc2)C(=O)N1CN1CCN(S(=O)(=O)c2cccs2)CC1	-3.0	nt
Cc1sc(N)c(C(N)=O)c1C	-8.0	6.7
Cc1cc(-c2nnc(-c3ccc(C(F)(F)F)cc3)o2)no1	nt	-3.0
O=C(CCCn1c(=O)[nH]c2cc(Cl)ccc2c1=O)NC1CCCCCCC1	8.0	-0.6
O=C(CSc1ncc(C(F)(F)F)cc1Cl)N1CCC(c2nc3ccccc3o2)CC1	-9.0	nt
NCCN1C(=O)c2[nH]nc(-c3ccccc3)c2C1c1ccccc1 (stereo not given)	13.0	4.1
C=C(C)CC(N)(CC(=C)C)c1ccncc1	-5.0	2.0
Cc1ccc(C(=O)Nc2ccnn2C(C)C)cc1	-11.0	nt
COc1cc(/C=C2/C(=O)N(c3ccc(Br)cc3)N=C2C)cc([N+](=O)[O-])c1O	nt	-1.3
CCC1CSC(Nc2ccc(C)c(Cl)c2)=N1 (stereo not given)	16.0	nt
Cc1cccc(NC(=O)CCCN2C(=O)C(c3ccccc3)Oc3cccnc32)c1C (stereo not given)	-20.0	nt
COc1ccc(COC(=O)C2=C(C)NC(=O)NC2c2cc(Br)c(O)c(OC)c2)cc1 (stereo not given)	nt	-1.7
C=CCN1C(=O)/C(=C\c2cccs2)SC1=S	-4.0	nt
CCOC(=O)CN(C)c1nc(-c2ccccc2)cs1	-8.0	-0.6
CC(NC(=O)Cc1ccccc1)c1ccccc1 (stereo not given)	2.0	-1.3
CCCCC1C(=O)NN(C2CCSC(C)(C)C2)C1=O (stereo not given)	7.0	nt
O=C(O)CCCC(=O)NC1CCCCNC1=O (stereo not given)	nt	-0.1
CC(C)CCNC(=O)c1cc(Sc2ccc(F)cc2)nc2ccccc12	-4.0	0.8
Cc1noc(C(F)(F)F)c1-c1nnc(-c2cccc(C(F)(F)F)c2)o1	nt	2.0
(listing goes on)
SMILES	Sa helicase inh	MgrA-DNA mod
S=C(NC1CC1)N1CCc2ccccc2C1	8.0	-3.2
C=CCN1C(=O)/C(=C2/C(=O)N(S(=O)(=O)c3ccc(C)cc3)c3ccccc32)SC1=S	nt	-3.8
O=C1OC(C(=O)O)Cc2ccccc21 (stereo not given)	9.0	-0.8
COC(=O)c1ccc2c(c1)C(=O)/C(=C/c1cn(-c3ccccc3)nc1-c1ccccc1)O2	-13.0	5.0
CCc1nc2n(n1)C(O)c1cc(N)ccc1S2 (stereo not given)	-7.0	1.9
CN(CC(=O)Nc1ccc(N2CCOCC2)cc1)C(=O)c1ccc(OC(F)F)cc1	8.0	nt
CC1CC(C)CN(C(=O)CN(C)S(=O)(=O)c2cccc3cccnc23)C1 (stereo not given)	13.0	nt
COc1ccc(-c2nnc(SCC(=O)c3cc(C)n(CC(F)(F)F)c3C)o2)cc1	5.0	nt
O=c1oc2ccccc2c2c1ncn2CCN1CCCC1	2.0	3.1
Cc1ccc2nc(C)cc(N3CCOCC3)c2c1	3.0	nt
CCc1ccc(-c2nn(-c3ccccc3)cc2/C=C(/C#N)C(N)=O)cc1	-6.0	0.2
Cc1cc(C(=O)OCC(N)=O)c(C)o1	-5.0	-1.2
COC(=O)c1ccc(COC(=O)/C=C/c2ccc3c(c2)OCO3)o1	3.0	nt
CCOC(=O)c1[nH]c(Cc2[nH]c(C(=O)OCC)c(C)c2CC)c(CC)c1C	nt	-2.0
O=C(Nc1nnc(N2CCCCCC2)s1)c1csc2c1CCCC2	12.0	nt
COc1ccccc1CN1CCC(CNS(=O)(=O)c2ccc3c(c2)CCCC(=O)N3)CC1	4.0	nt
CCCCn1c(SCC(=O)N2CCCCC2)nc2ccccc2c1=O	11.0	-0.1
O=C1CC(c2ccccc2)C2=C(CC(c3cccs3)CC2=O)N1 (stereo not given)	5.0	nt
N#Cc1c(Cl)cccc1OCC(F)(F)F	nt	-0.4
Cc1ccc(/C=N/NC(=O)c2ccc(CN3CCOCC3)cc2)cc1	-13.0	nt
CCOC(=O)CSC1=C(C#N)C(c2ccccc2Cl)C(C(=O)OC)C(=O)N1 (stereo not given)	-9.0	nt
COC(=O)c1cc2c(nc1SCC(=O)CC#N)CCC2	3.0	-1.7
Cc1nn(CCC#N)c2[nH]c(=O)cc(C(F)(F)F)c12	-13.0	3.3
O=C(NCc1ccco1)c1oc(=O)c2ccccc2c1-c1ccccc1	7.0	0.0
Cc1nn(C)c(C)c1NC(=O)CCCC(=O)c1ccccc1	9.0	nt
COC(=O)c1ccc(S(=O)(=O)N(Cc2ccccc2)C(C)C)o1	nt	1.6
Cc1cc(N2CCCC2=O)cc(C)c1S(=O)(=O)NCCOc1ccccc1	-25.0	1.5
CCOc1ccc(CCNC(=O)C2CC(C)=CCC2C(=O)O)cc1OCC (stereo not given)	5.0	nt
CSC1=C(C#N)C(C)CC(=O)N1 (stereo not given)	19.0	nt
N#Cc1nncn1CN1CCC(Cc2ccccc2)CC1	-7.0	nt
CSc1c(NC(=O)/C=C/C(=O)O)cccc1C(F)(F)F	nt	-2.9
O=C(CCSc1nnc2ccccn12)Nc1cccc(-c2nc3ccccc3s2)c1	-1.0	-1.1
CCO/C([O-])=N/c1c[n+](N2CCOCC2)no1	nt	-2.6&3.5
CCC1CCCCN1C(=O)Cc1ccc(Cl)cc1 (stereo not given)	9.0	nt
C1=C(CCNC2=NCCCCC2)CCCC1	1.0	nt
Cn1cc(C(O)C(F)(F)F)c2ccccc21 (stereo not given)	nt	-3.1
CCc1cc(SCC(=O)NCCN2C(=O)CSC2=O)n2c(nc3ccccc32)c1C#N	15.0	nt
NC(=O)CSc1nc(N)c(-c2ccccc2)c(=O)[nH]1	8.0	0.1
NS(=O)(=O)c1ccc2nc(NC(=O)Cn3[nH]c(=O)c4ccccc4c3=O)sc2c1	-5.0	nt
CSc1n[nH]c(NC(=O)c2ccccc2Cl)c1S(=O)(=O)c1ccc(Cl)cc1	nt	-2.3
CNc1ccc(S(=O)(=O)c2ccc(NC)cc2)cc1	-11.0	2.6
CN1/C(=C\C(=O)Cn2nnc3ccccc3c2=O)C(C)(C)c2ccccc21	9.0	nt
CC1(C)Cc2cccc(C(=O)N3CCC(C(=O)c4ccc(Cl)cc4)CC3)c2O1	nt	0.5
COc1ccc(NC(=O)CC(=O)Nc2ccc(OC)cc2)cc1	10.0	-0.9
CCC(=O)OCC(=O)Nc1ccc2c(c1)OCO2	-15.0	nt
CCN(Cc1cc(=O)oc2ccc(OC)cc12)c1ccccc1	-1.0	nt
C/C(Cc1nc2ccccc2[nH]1)=N/Nc1ccccc1	8.0	1.6
O=C(CCCN1C(=O)/C(=C\c2ccco2)SC1=S)Nc1cccnc1	7.0	nt
CCOc1ccccc1-n1c(N)c(C#N)c(N)c(C#N)c1=S	3.0	0.0
CCOC(=O)C1=C(CSc2nnc(-c3ccccc3OC)n2C2CCCCC2)NC(=O)NC1C (stereo not given)	-8.0	nt
NC(=O)c1ccccc1NC(=O)c1cccc(COc2ccc3c(c2)CCC3)c1	2.0	3.4
O=c1c2cccnc2nc(SCc2ccccc2F)n1Cc1ccccc1	1.0	nt
O=C(Cc1ccccc1F)NCCc1c[nH]c2ccccc12	nt	1.1
O=C1CC(c2ccccc2)CC(O)=C1C=Nc1ccccc1 (stereo not given)	-8.0	2.1
O=c1c2c(nc(NCCO)n1-c1ccccc1)-c1ccccc1CC21CCCC1	6.0	nt
Cc1ccccc1C(=O)Nc1nnc(SCC(=O)Nc2ccc(F)cc2)s1	-12.0	nt
O=C(COC(=O)c1ccccn1)NCc1ccccc1	-20.0	-2.8
Cc1c(C(=O)N(C)C)sc2[nH]c(=S)n(CCc3ccc(Cl)cc3)c(=O)c12	9.0	4.0
CCc1nn(CC(=O)NC(C)c2ccc3c(c2)OCCO3)c(=O)c2cc3sccc3n12 (stereo not given)	5.0	nt
FC(F)Sc1nnc2sc3ccccc3n12	-9.0	nt

As entered above:
CCc1nn(CC(=O)NC(C)c2ccc3c(c2)OCCO3)c(=O)c2cc3sccc3n12 (stereo not given) in Sa helicase inh has 5.0
Cc1c(C(=O)N(C)C)sc2[nH]c(=S)n(CCc3ccc(Cl)cc3)c(=O)c12 in Sa helicase inh has 9.0
FC(F)Sc1nnc2sc3ccccc3n12 in Sa helicase inh has -9.0

(cont.)
SMILES	Sa helicase inh	MgrA-DNA mod
CCO/C=C(\C#N)S(=O)(=O)c1ccccc1	nt	-2.8
c1ccc(COC(CN2CCCC2)CN2CCCC2)cc1	13.0	-1.4
Cc1c(CC(=O)Nc2ccc(Cl)cc2)sc2ccc(Cl)cc12	nt	-0.9
O=C(NC(Nc1cccc(C(F)(F)F)c1)C(=O)c1ccccc1)c1cccs1 (stereo not given)	10.0	0.2
Cc1ccccc1OCC(=O)NCc1ccccc1	7.0	nt
CNC(=O)/C(=C\c1ccccc1)NC(=O)c1ccc(Cl)cc1Cl	15.0	-1.6
Cc1ccc2nc(SCC(=O)c3cc(C)n(C4CC4)c3C)[nH]c2c1	-5.0	nt
CN=C(Cc1ccccc1)C1=C(O)CC(C)(C)CC1=O	4.0	nt
CCOC(=O)C1=c2s/c(=C/c3cccs3)c(=O)n2C(N)=C(C#N)C1c1cccs1 (stereo not given)	25.0	nt

Three of the entries above in order of the Sa helicase inh value, low to high:
SMILES	Sa helicase inh	MgrA-DNA mod
CCOC(=O)CSC1=C(C#N)C(c2ccccc2Cl)C(C(=O)OC)C(=O)N1 (stereo not given)	-9.0	nt
CC(C)CCNC(=O)c1cc(Sc2ccc(F)cc2)nc2ccccc12	-4.0	0.8
O=c1c2c(nc(NCCO)n1-c1ccccc1)-c1ccccc1CC21CCCC1	6.0	nt
